NPYLR7 ag = activates Aedes aegypti NPYLR7 receptor; 270,000 tested, 0.15% active; HEK293T NPYLR7/Galpha15, GCaMP6s calcium fluorescence; activation, % at 10 µM; in the data active = activation above about 40%;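 note: 0% = vehicle and 100% = reference agonist at the receptor; some compounds past the cut are filed as inactive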
NPYLR7 ag max-min = second read-out of NPYLR7 ag, no call of its own (marks repeat the call); activation, %; measured here: Max-Min RFU normalised activation; some inactives read as strong as hits;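 span of the calcium signal over five minutes; 0% = vehicle and 100% = native peptide agonist; compound fluorescence can raise it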
The depositor's hits bear a star; & = joins results of further samples.

The line under a structure holds: NPYLR7 ag | NPYLR7 ag max-min
COc1ccc(NC(=O)N2CCCCC2c2cccc(F)c2)cc1 (stereo not given)
  8.8 | 7.1
O=C(NCCC1=CCCCC1)c1ccc(-c2cccc(C(F)(F)F)c2)s1
  14.8 | 11.8
O=C(Nc1cc(F)cc(F)c1)C1CCCCN1C(=O)c1ccnc(C2CC2)n1 (stereo not given)
  -17.7 | -18.6
COCc1nnc(NC(=O)CN2CCN(C(=O)C3CCCO3)CC2)s1 (stereo not given)
  18.7 | 11.4
COC(=O)c1sc2[nH]c(=S)n(CCN3CCCC3)c(=O)c2c1C
  -5.0 | -6.7
CCOC(=O)C1(C)CCCN1C(=O)c1ccc(C(C)(C)C)cc1 (stereo not given)
  0.4 | -4.4
CC(c1ccccc1)N(CCS(C)(=O)=O)CC1CCC1 (stereo not given)
  6.9 | 4.7
CCCOCCCNC(=O)c1cncn1-c1ccc(-c2ccc(F)c(F)c2)cc1
  -3.5 | -12.3
CNC(=O)C1Cc2ccccc2CN1S(=O)(=O)N1CCCCCC1 (stereo not given)
  10.0 | 5.1
CC(C)CN(CC(C)C)S(=O)(=O)c1ccc(F)c(F)c1F
  4.6 | 3.8
CC(C)(Oc1ccc(Cl)cc1)C(=O)Oc1coc(CSc2ncccn2)cc1=O
  -11.3 | -6.0
COc1ccccc1N1CCN(Cc2nc(N)nc(N3CCCc4ccccc43)n2)CC1
  -2.8 | -12.5
Cn1ccnc1SCC(=O)N1N=C2c3ccccc3CCC2C1c1ccc(F)cc1 (stereo not given)
  1.8 | 7.7
CCOC(=O)c1ccccc1NC(=O)N1CCN2CCN(C)C(=O)C2C1 (stereo not given)
  5.7 | 2.5
COCCN(Cc1ccco1)Cc1ncc(Cl)n1C
  1.6 | 1.2
Cc1nn(C)c(Cl)c1S(=O)(=O)N[C@@H]1C[C@@H](CO)N(C)C1
  6.5 | 5.3
CCc1noc(C)c1C(=O)Nc1ccc(Br)cc1Cl
  -6.4 | -9.4
COc1ccccc1NC(=O)CSc1nc2c(c(=O)n1-c1cc(C)cc(C)c1)SCC2
  -3.8 | -11.2
CCC(C)n1c(SCc2nc(-c3cccs3)no2)nc2ccccc2c1=O (stereo not given)
  -4.9 | -3.9
O=C(c1cn(CC2CCCO2)cc2c(=O)n(-c3ccccc3)nc1-2)N1CCc2ccccc21 (stereo not given)
  6.9 | 4.2
CC1(c2ccc(C#N)cc2)NC(=O)N(Cc2nc3ccccc3s2)C1=O (stereo not given)
  5.4 | 2.6
COc1ccccc1N=Nc1c(C)[nH]n(-c2nc(-c3ccc(C)cc3)cs2)c1=O
  -5.9 | -9.6
COC(=O)C1CCCCN1Cc1cccc(C(=O)NCc2ccco2)c1 (stereo not given)
  -0.5 | 3.8
O=S(=O)(Nc1ccc(F)c(Cl)c1)c1ccc(Cl)s1
  -0.1&0.3 | 0.0&-2.0
Cc1nc(CNCC(C)c2nc3ccccc3o2)cs1 (stereo not given)
  2.9 | 2.0
C/C(=N\NC(=O)c1cc(C(C)C)[nH]n1)c1ccc(Br)cc1
  1.6 | 5.4
COc1ccccc1NC(=O)N1CCN(C(=O)CCN2CCc3sccc3C2c2cccc(F)c2)CC1C (stereo not given)
  8.1 | -1.2
CC(=O)Nn1ccc2c(cnc3ccnn32)c1=O
  3.2 | 3.5
Cc1nn2c(=O)[nH]c(SCc3cccnc3)nc2c1-c1ccccc1
  6.7 | -4.4
COCCOc1nc(-c2ccc(OC)cc2)n(-c2cccc(NC(=O)c3cccc([N+](=O)[O-])c3)c2)n1
  -4.5 | 10.0
CC1Cc2ccccc2N1C(=O)CC1C(=O)CC(C)(C)CC1=O (stereo not given)
  3.4 | 2.9
O=C(O)c1cccc(CC2CCN(C(=O)c3cnn4ccccc34)C2)c1 (stereo not given)
  12.8 | 7.9
Cc1ccc(S(=O)(=O)NC(=O)C2(C)CCN2C(=O)Cc2ccc(Cl)cc2Cl)cc1 (stereo not given)
  1.1 | -3.2
Cc1ccsc1[C@@H]1CCN(C(=O)CCc2n[nH]c(C)c2C)C[C@H]1O
  -2.2 | 4.8
COc1ccc(-c2nnc(SCC(=O)NC(C)C)n2C(C)C)cc1
  9.2 | 6.9
O=C(c1ccc(-c2ccn[nH]2)cc1)N1CCC2(CCCO2)CC1
  8.2 | 5.7
COc1cccc(-c2nc3n(n2)C(c2ccccc2Cl)C(C(=O)Nc2cccnc2)=C(C)N3)c1 (stereo not given)
  0.0 | -2.9
Cc1nnc(CN(C)C2CCN(c3c(F)cccc3F)C2=O)n1C (stereo not given)
  2.9 | 0.1
Cc1cnn(CCC(=O)NCC(O)c2c(Cl)cccc2Cl)c1 (stereo not given)
  -7.3 | -8.2
O=C(Nc1cccc(F)c1)c1ccc(CSc2nnc(-c3ccco3)n2-c2cccc(Cl)c2)cc1
  5.4 | 4.8
Clc1ccc(-c2cc(C3Nc4ccccc4N3)c(-c3ccccc3)nn2)cc1
  0.4 | 4.8
CCC(=Nc1ccnn1C1CCCCC1)c1c(O)n(CC)c(=S)n(CC)c1=O
  3.1 | 0.5
CC1C(=O)N(c2ccc(F)cc2F)CCN1C(=O)c1ccccc1Cl (stereo not given)
  -0.8 | 9.3
O=C(NC1CCN(C2CC2)C1)C1CCCN1C(=O)OCC(F)(F)F (stereo not given)
  13.6 | 13.4
CCOC(=O)c1ccc(NC(=O)c2cccn(OCc3ccc(F)cc3)c2=O)cc1
  5.2 | 2.1

Shown with each value named: part of the list above
> O=C(Nc1cc(F)cc(F)c1)C1CCCCN1C(=O)c1ccnc(C2CC2)n1 (stereo not given)
  NPYLR7 ag: -17.7 | NPYLR7 ag max-min: -18.6
> COCc1nnc(NC(=O)CN2CCN(C(=O)C3CCCO3)CC2)s1 (stereo not given)
  NPYLR7 ag: 18.7 | NPYLR7 ag max-min: 11.4
> COC(=O)c1sc2[nH]c(=S)n(CCN3CCCC3)c(=O)c2c1C
  NPYLR7 ag: -5.0 | NPYLR7 ag max-min: -6.7
> CCOC(=O)C1(C)CCCN1C(=O)c1ccc(C(C)(C)C)cc1 (stereo not given)
  NPYLR7 ag: 0.4 | NPYLR7 ag max-min: -4.4

(continued)
The line under a structure holds: NPYLR7 ag | NPYLR7 ag max-min
CN(Cc1ccc(Cl)cc1)C(=O)[C@H](Cc1ccccc1)NC(=O)OC(C)(C)C
  13.9 | 9.0
CC(=O)NC1C(=O)N(Cc2ccc(OC(C)C)cc2)c2ccc(C)cc21 (stereo not given)
  0.7 | -2.5
Cc1cccc(-c2cc(N)n(-c3ccc(C(=O)NCc4ccc5c(c4)OCO5)cc3)n2)c1
  -7.7 | -11.8
CCOC(=O)[C@@H]1CN(Cc2ccccc2)[C@H]2c3cccc(F)c3O[C@@H]12
  1.9 | 1.7
Fc1ccc(-c2nc(-c3ccccc3)c3ccccn23)cc1
  -1.3 | -0.9
COc1cccc(-c2nc3ccccn3c2NC(=O)CSc2ccccc2)c1
  -9.2 | -7.9
CN(C)C1CCN(C(=O)c2ccc(-c3cc(-c4cccc(C(F)(F)F)c4)n[nH]3)cc2)CC1
  3.4 | -2.7
CCCCCCCC(=O)Nc1ccc(N2CCC(Cc3ccccc3)CC2)c(C(=O)NCC2CCCO2)c1 (stereo not given)
  14.0 | 25.6
COc1cccc(-n2nnc3c(=O)n(Cc4cc(C)ccc4C)cnc32)c1
  7.5 | 8.8
CN(C(=O)c1cccs1)C(Cc1ccccc1F)C1CCN(C(=O)/C=C/c2ccncc2)CC1 (stereo not given)
  14.8 | 4.9
COc1ccc(CCNC(=O)c2ccccc2NS(=O)(=O)c2ccc(C(C)C)cc2)cc1
  -0.5 | 8.0
COC(C)c1nc(C)c(C(=O)N(Cc2cccnc2)C(C)C)s1 (stereo not given)
  -0.2 | 0.7
CN(C)c1ncc(CN2CCC(Cn3cc(CO)nn3)CC2)s1
  5.6 | -2.2
COCCNC(=O)C(NC(=O)C1CCCC1)C1CCN(C(=O)c2ccccc2OC)CC1 (stereo not given)
  -0.4 | 0.1
CCC(NCc1cnc(SC)nc1N(C)C1CCCCC1)c1ccccc1 (stereo not given)
  0.6 | -4.7

Of the compounds above, two have bromine:
The line under a structure holds: NPYLR7 ag | NPYLR7 ag max-min
CCc1noc(C)c1C(=O)Nc1ccc(Br)cc1Cl
  -6.4 | -9.4
C/C(=N\NC(=O)c1cc(C(C)C)[nH]n1)c1ccc(Br)cc1
  1.6 | 5.4

More records follow.
The line under a structure holds: NPYLR7 ag | NPYLR7 ag max-min
Cc1nnc(C)n1-n1ccc2nc3ccn(-c4cccc(Cl)c4)c(=O)c3cc2c1=O
  2.5 | 1.5
Cc1nc(-c2ccc(Cl)cc2)nc(N2CCN(C(=O)c3cc(C(F)(F)F)cc(C(F)(F)F)c3)CC2)c1C
  12.8 | 24.3
COc1ccc2nc(Cn3cnc4sccc4c3=O)[nH]c2c1
  5.4 | -8.9
C[C@H](NC(=O)NCC1COc2ccccc2O1)c1ccccc1 (stereo not given in full)
  -9.7 | -12.2
N[C@@H](CCC(=O)N[C@@H](CS)C(=O)NCC(=O)O)C(=O)O
  -8.1 | -11.6
CC(C)(C)c1ccc(C(=O)Nc2sc3c(c2C(N)=O)CCCCC3)cc1
  12.4 | 6.7
CSCc1ccc(C(=O)Nc2cccc3cccnc23)o1
  16.1 | 8.6
FC(F)(F)c1nc(N2CCCC2)nc2c1CCCCC2
  0.5 | 0.2
CCOc1ccccc1C(=O)Nc1ccc(N2CCN(C(=O)c3ccco3)CC2)nc1
  5.8 | 2.0
O=C(NCc1ccc(-n2cncn2)cc1)C1CC1c1ccccc1F (stereo not given)
  1.8 | 0.5
Cn1nc(CN2CCCC(OCc3cccnc3)C2)c2c(Cl)cccc21 (stereo not given)
  0.9 | -0.5
COc1cc(-c2cc(C(=O)NC(C)c3ccc(F)cc3)c3ccccc3n2)cc(OC)c1OC (stereo not given)
  25.3 | 21.6
S=c1nc(-c2cc(Cl)ccc2Cl)[nH][nH]1
  16.3 | 8.5
CSc1ccc(NC(=O)N2CCN(c3nc(Cc4ccccc4)nc4sc5c(c34)CCC(C)C5)CC2)cc1 (stereo not given)
  -7.1 | 6.9
CS(=O)(=O)N1CCN(C(=O)CNc2cccc(Cl)c2Cl)CC1
  -4.3 | -3.2
O=C(Cn1cnc2c(nnn2-c2cccc(F)c2)c1=O)N1CCCCCC1
  -5.1 | -9.3
COc1ccc(S(=O)(=O)c2ccc(OC)cc2)cc1
  1.3 | 6.2
Cc1csc(C(C#N)C(=O)COC(=O)/C(=C/c2ccco2)n2nnnc2-c2ccccc2)n1 (stereo not given)
  18.0 | 22.8
COc1ccc(C(=O)N2CCCN(c3nc(CC(C)C)nc4c3cnn4-c3ccccc3)CC2)cc1
  10.9 | 9.9
O=C(c1ccc(SC(F)(F)F)cc1)N1CCc2ccccc2C1c1ccccc1Cl (stereo not given)
  -0.6 | 2.2
CCOc1ccc(-n2nnnc2CNS(=O)(=O)c2ccc(OC)cc2)cc1
  0.5 | -2.4
O=C(O)[C@H]1C[C@@H](C(=O)N2CCCC2)CN(C(=O)C2(Cn3cccn3)CC2)C1
  4.3 | 1.4
COc1cccc(C2C(C(=O)c3ccc(C)o3)=C(O)C(=O)N2CCCN(C)C)c1OC (stereo not given)
  1.2 | 0.2
Cc1cc(C)c(C(=O)CSc2n[nH]c(C(C)C)n2)c(C)c1
  9.5 | 3.2
N#Cc1ccc(N(CCO)Cc2ccsc2)nc1
  -3.3 | -7.5
CC(C)Cc1ccc(C(C)NS(C)(=O)=O)cc1 (stereo not given)
  11.9 | 3.4
Cc1cccc2cc(CO)c(N3CCC(CO)(Cc4ccccc4)CC3)nc12
  -4.6 | -7.6
O=C(CCc1cccnc1)Nc1cc(Cl)ccc1Oc1ccccc1
  0.1 | 0.5
O=C(NC1C=CS(=O)(=O)C1)c1cnn2c1CCCC2 (stereo not given)
  16.8 | 7.7
CCCCOP(=O)(OCCCC)C(Nc1ccc(C(=O)O)cc1)c1ccccc1O (stereo not given)
  -10.4 | -16.4
O=C(NCC1CCCN(C(=O)c2ccc3[nH]ccc3c2)C1)c1ccccc1Cl (stereo not given)
  15.7&-2.6 | 5.4&-3.9
CCOCCCn1c(SCc2c(F)c(F)c(OC)c(F)c2F)nc2cc(C(=O)OCC)ccc21
  1.3 | -7.8
CCc1cc(=O)[nH]c(-n2nc(C)cc2NC(=O)C23CC4CC(CC(C4)C2)C3)n1
  13.3 | 9.3
COC(=O)C1(C(=O)NCCOc2ccccc2)CC1
  -3.2 | -4.2
O=C(OCc1nc(C(=O)NCc2cccc(F)c2)cs1)c1ccccc1
  10.2 | 12.6
CCOc1ccc(-c2n[nH]c(C)c2-c2ccccc2)c(O)c1
  1.0 | 5.5
CCCNC(=O)COc1coc(CN2CCN(c3ccccc3)CC2)cc1=O
  5.5 | 5.1
CCn1cc(NC(=O)Nc2c(C)cccc2C)c2ccccc21
  13.3 | 6.0
O=C(OCc1ccccc1)[C@@H]1CCCN1C(=O)c1ccc(CSc2ccc3ccccc3n2)cc1
  -8.2 | -14.6
COc1cc(OC)c(OC)cc1C=C1N=C(c2ccccc2Cl)OC1=O
  13.0 | 5.8

This is a subset; rates above refer to the full screens.
